# TNFa cytotox = cytotoxicity in TNFa-stimulated HUVEC, primary screen, cytotoxicity control for VCAM1 expression modulator project, imaging, Hoechst nuclei count; AID 848, 2007; HUVEC TNFalpha-stimulated, Hoechst cell count; cell count reduction, % at 2 µM; 0.17% of 93,000 active;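 active means cell count reduction exceeding the screen mean by over 5 SD, scaled to untreated wells per plate, cut at about 78% in these data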;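 further: cells counted after 24 h of TNF alpha exposure following the 1 h pretreatment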
# VCAM1 TNFa inh = inhibitors of TNFa-induced VCAM1 expression, primary screen, imaging, HUVEC, TNFa stimulus, immunofluorescence | 0.48% of 95,000 active | AID 802, 2007 | inhibition, % at 2 µM | HUVEC TNFa-induced VCAM-1 immunofluorescence, high-content imaging;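 active means inhibition above the batch mean plus 3 SD, with images confirmed as a hit by eye, cut at about 37% in these data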;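 further: 0% = TNF-stimulated DMSO wells and 100% = unstimulated control wells; not every result past the cut was called active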
# IL1B cytotox = cytotoxicity in IL-1B stimulated HUVEC, primary screen, cytotoxicity control for IL-1B NFkB translocation project, imaging, Hoechst nuclear count, IL-1B stimulus. HUVEC cell count loss. cell count reduction, % at 2 µM. 0.41% of 94,000 active;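 active means cell count reduction more than 3 SD above the screen-wide mean, cut at about 70% in these data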;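 further: normalized per plate to untreated control cells as the no-loss baseline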
# Calb biofilm kill = clotrimazole potentiators killing Candida biofilms, primary screen, with clotrimazole, Alamar Blue; C. albicans biofilm + clotrimazole; 0.14% of 85,000 active; inhibition, % at 6 µM;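 active means inhibition above 20%; inactive means inhibition below 20%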;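 further: preformed 24 hr biofilms exposed to compound for 48 hr; 0% = biofilm without compound and 100% = blank killed by clotrimazole plus chlorhexidine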
# hDAT+cocaine = changed hDAT dopamine uptake under cocaine IC80, either direction, primary screen, cocaine antagonist project, cell-based, LLC-PK1 hDAT, [14C]-dopamine uptake, MLSMR; Sodium-dependent dopamine transporter (Homo sapiens), Q01959; LLC-PK1 hDAT cells, [14C]-dopamine uptake with cocaine IC80; actives deviate in either direction; B-score at 10 µM; 1.3% of 110,000 active;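 active means Z score or B-score, a plate-position-corrected score, falls beyond the plate's 99.7% confidence bounds, in either direction; inactive means both scores lie inside the 99.7% bounds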;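 further: scored against the spread of the other compound wells on the same plate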
# Target sequence (Q01959 whole entry, looked up): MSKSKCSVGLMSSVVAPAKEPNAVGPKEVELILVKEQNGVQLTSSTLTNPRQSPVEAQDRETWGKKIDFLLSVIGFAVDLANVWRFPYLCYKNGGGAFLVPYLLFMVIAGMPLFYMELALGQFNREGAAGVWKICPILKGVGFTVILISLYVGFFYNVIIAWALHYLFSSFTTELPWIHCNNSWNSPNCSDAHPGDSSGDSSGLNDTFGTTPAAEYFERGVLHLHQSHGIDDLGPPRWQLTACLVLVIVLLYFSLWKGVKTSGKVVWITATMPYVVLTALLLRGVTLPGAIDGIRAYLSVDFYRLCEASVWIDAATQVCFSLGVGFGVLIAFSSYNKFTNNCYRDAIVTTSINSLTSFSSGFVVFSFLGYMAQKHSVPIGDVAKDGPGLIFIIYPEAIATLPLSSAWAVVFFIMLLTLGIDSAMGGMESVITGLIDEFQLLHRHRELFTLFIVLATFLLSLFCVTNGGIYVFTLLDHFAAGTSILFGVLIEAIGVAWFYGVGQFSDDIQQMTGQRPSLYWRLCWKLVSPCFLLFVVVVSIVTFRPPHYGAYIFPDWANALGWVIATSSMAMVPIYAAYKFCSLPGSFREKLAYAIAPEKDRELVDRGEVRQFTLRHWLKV
# * = called active by the depositor; · = not tested or not shown. An excerpt (hit frequency here may not be typical).
# Screens by letter: A = TNFa cytotox; B = VCAM1 TNFa inh; C = IL1B cytotox; D = Calb biofilm kill; E = hDAT+cocaine
1	N#CCSc1nc(N)c(C#N)c(C2CCCCC2)c1C#N
  A: -12.5; B: 5.7; C: -97.0; D: 3.6; E: -1.6

2	CCOc1c2ccc(C(=O)NCc3ccco3)cc2nn1CCOC
  A: 5.7; B: 12.7; C: 0.4; D: ·; E: -0.744

3	Cc1cc(=O)oc(C)c1C(=O)N1CCCc2ccccc21
  A: 1.5; B: 25.9; C: -6.6; D: 5.9; E: 0.24

4	Cc1ccccc1NC(=O)c1ccc(N/N=C/c2ccccc2O)c([N+](=O)[O-])c1
  A: -0.6; B: -4.1; C: 2.4; D: ·; E: ·

5	O=C(Nc1ncc2c(n1)-c1ccccc1CC2)c1ccccc1
  A: -10.0; B: 10.2; C: -11.0; D: ·; E: 0.318

6	O=c1nc(-c2ccccc2)n(-c2ccccc2)c2ncccc12
  A: 13.2; B: 1.6; C: 10.3; D: ·; E: -1.12

7	COc1ccc(-c2cc(=O)oc3cc4occ(C)c4cc23)cc1
  A: -0.3; B: 5.1; C: -4.2; D: ·; E: 0.122

8	COc1ccc(C(=O)NC(NC(=S)Nc2ccc(S(N)(=O)=O)cc2)C(Cl)(Cl)Cl)cc1 (stereo not given)
  A: -4.6; B: 15.4; C: -48.5; D: ·; E: -2.29*

9	Cc1nn(CCOc2ccccc2)c(=O)n1-c1ccc(F)cc1
  A: -2.4; B: 4.0; C: 15.4; D: ·; E: -0.312

10	COc1ccc(NC(=O)CSc2ncnc3c2cnn3Cc2ccccc2)cc1
  A: -3.8; B: -8.1; C: -72.7; D: 8.3; E: -0.228

11	COc1c(F)c(F)c(C(=O)O)c(Nc2ccc(C)cc2)c1F
  A: -13.9; B: 3.9; C: -12.6; D: 4.2; E: 0.695

12	Cc1[nH]n(C(C)(C)C)c(=O)c1Sc1ccccc1
  A: -18.0; B: 19.6; C: 3.8; D: 5.6; E: 0.0745

13	CCNC(=O)/C(=C/c1ccco1)NC(=O)/C=C/c1ccccc1
  A: -2.1; B: 14.6; C: -48.2; D: ·; E: 0.658

14	NS(=O)(=O)c1ccc(NC(=O)c2ccccc2C(=O)N2CCCCC2)cc1
  A: -26.3; B: 5.9; C: -75.4; D: 5.7; E: -0.82

15	CC(C)(C)OC(=O)COc1cc(OCC(=O)OC(C)(C)C)c2c(=O)cc(-c3ccccc3)oc2c1
  A: -22.2; B: 8.4; C: 4.1; D: ·; E: 0.0437

16	CCCC(=O)NC(Nc1cccc(C(F)(F)F)c1)C(Cl)(Cl)Cl (stereo not given)
  A: -5.1; B: -0.8; C: 14.7; D: ·; E: 0.671

17	Cc1cc(Br)ccc1NCc1ccccn1
  A: -3.7; B: -3.3; C: 4.7; D: ·; E: 0.525

18	CSc1ncc(C(=O)O)c(C)n1
  A: -24.6; B: 3.0; C: -25.1; D: ·; E: 0.119

19	COc1ccc(CCNC(=O)C2CCN(S(=O)(=O)c3cccc4nsnc34)CC2)cc1OC
  A: -12.1; B: -0.6; C: -3.8; D: -0.9; E: -0.56

20	O=C(CN(c1ccccc1)S(=O)(=O)c1ccccc1)NCCSCc1ccco1
  A: 23.5; B: 5.2; C: -16.4; D: ·; E: -0.705

21	c1cncc(-c2cccnc2)c1
  A: -14.8; B: 8.3; C: -67.9; D: 9.3; E: 0.0318

22	CN(C)S(=O)(=O)Oc1ccsc1C(=O)Nc1ccc(Cl)c(Cl)c1
  A: -3.0; B: 0.3; C: 24.2; D: ·; E: -0.892

23	CC(C)C12CCC(C(=O)O)C(C1)C(=O)O2 (stereo not given)
  A: -34.5; B: -7.9; C: -15.3; D: 3.9; E: 0.126

24	CC(C)(C)c1nc(SCC(=O)Nc2ccc3c(c2)OCCO3)c2ccccc2n1
  A: 1.2; B: 8.2; C: -26.9; D: ·; E: -1.49

25	CC(=O)Nc1ccc(S(=O)(=O)N2CCN(c3nc(NC4CCCC4)c4ccccc4n3)CC2)cc1
  A: -12.4; B: -7.6; C: -13.7; D: -2.5; E: 1.44

26	CCn1nnnc1SCC(=O)NC1CCCC1
  A: -15.0; B: 7.8; C: 2.8; D: 1.1; E: 1.25

27	NC(=O)C1CCN(C(=O)CCc2nc3ccccc3c(=O)[nH]2)CC1
  A: -25.8; B: 3.8; C: 8.0; D: 1.7; E: -0.898

28	Clc1ccc(N2N=C(c3cccs3)CC2c2ccco2)cc1 (stereo not given)
  A: 8.8; B: 11.4; C: -1.2; D: ·; E: -1.46

29	CC1CC(C)CN(Cc2nc(N)nc(Nc3ccccc3)n2)C1 (stereo not given)
  A: -19.0; B: -8.8; C: -22.9; D: 2.5; E: 0.792

30	Cc1ccccc1CSCCNC(=O)CSCc1ccc([N+](=O)[O-])cc1
  A: -14.8; B: 17.3; C: -1.4; D: ·; E: ·

# In another format: entries from further up
1: N#CCSc1nc(N)c(C#N)c(C2CCCCC2)c1C#N
2: CCOc1c2ccc(C(=O)NCc3ccco3)cc2nn1CCOC
3: Cc1cc(=O)oc(C)c1C(=O)N1CCCc2ccccc21
4: Cc1ccccc1NC(=O)c1ccc(N/N=C/c2ccccc2O)c([N+](=O)[O-])c1
5: O=C(Nc1ncc2c(n1)-c1ccccc1CC2)c1ccccc1
6: O=c1nc(-c2ccccc2)n(-c2ccccc2)c2ncccc12
7: COc1ccc(-c2cc(=O)oc3cc4occ(C)c4cc23)cc1
8: COc1ccc(C(=O)NC(NC(=S)Nc2ccc(S(N)(=O)=O)cc2)C(Cl)(Cl)Cl)cc1 (stereo not given)

Compound	1	2	3	4	5	6	7	8
TNFa cytotox	-12.5	5.7	1.5	-0.6	-10.0	13.2	-0.3	-4.6
VCAM1 TNFa inh	5.7	12.7	25.9	-4.1	10.2	1.6	5.1	15.4
IL1B cytotox	-97.0	0.4	-6.6	2.4	-11.0	10.3	-4.2	-48.5
Calb biofilm kill	3.6	·	5.9	·	·	·	·	·
hDAT+cocaine	-1.6	-0.744	0.24	·	0.318	-1.12	0.122	-2.29*

9: Cc1nn(CCOc2ccccc2)c(=O)n1-c1ccc(F)cc1
10: COc1ccc(NC(=O)CSc2ncnc3c2cnn3Cc2ccccc2)cc1
11: COc1c(F)c(F)c(C(=O)O)c(Nc2ccc(C)cc2)c1F
12: Cc1[nH]n(C(C)(C)C)c(=O)c1Sc1ccccc1

Compound	9	10	11	12
TNFa cytotox	-2.4	-3.8	-13.9	-18.0
VCAM1 TNFa inh	4.0	-8.1	3.9	19.6
IL1B cytotox	15.4	-72.7	-12.6	3.8
Calb biofilm kill	·	8.3	4.2	5.6
hDAT+cocaine	-0.312	-0.228	0.695	0.0745

# Later entries
# Screens by letter: A = TNFa cytotox; B = VCAM1 TNFa inh; C = IL1B cytotox; D = Calb biofilm kill; E = hDAT+cocaine
31	CCOC(=O)c1cc2c(=O)n3cccc(C)c3nc2n(Cc2ccco2)c1=NC(=O)c1ccccc1
  A: -3.1; B: 15.9; C: -10.3; D: 5.6; E: 0.465

32	O=C(c1ccco1)N1CCN(S(=O)(=O)c2ccc3[nH]c(=O)oc3c2)CC1
  A: -15.6; B: 9.3; C: -26.6; D: 3.0; E: -0.648

33	CC(C)CN(CC(C)C)S(=O)(=O)N1CCC(C(=O)NCc2ccc(F)cc2)CC1
  A: 16.4; B: 4.1; C: 23.5; D: 5.3; E: -0.568

34	Cc1nn(Cc2c(F)c(F)c(F)c(F)c2F)c(C)c1NC(=O)c1cccc(COc2ccccc2Cl)c1
  A: -39.3; B: -1.1; C: -5.8; D: ·; E: -0.404

35	CCOC(=O)C1=C(C)N=C2SC(C(=O)OC)=CC(=O)N2C1c1cccc(OC)c1 (stereo not given)
  A: ·; B: -18.9; C: 7.5; D: ·; E: -0.522

36	CC1CCN(C(=O)C(NS(=O)(=O)c2cccc3nsnc23)c2ccccc2)CC1 (stereo not given)
  A: -15.2; B: 31.1; C: -27.3; D: 0.9; E: -0.00149

37	FC(F)(F)c1nc(-c2cccnc2)ncc1-c1nnnn1-c1ccccc1
  A: -25.8; B: 17.4; C: ·; D: ·; E: 0.227

38	CC(=O)NCCn1c(SCc2ccc(C)cc2)nc2ccccc2c1=O
  A: -3.5; B: 1.7; C: -28.4; D: 4.5; E: -0.585

39	Cc1ccccc1-c1noc(-c2ccc(Cl)cc2)n1
  A: 3.4; B: -0.1; C: -13.7; D: 0.9; E: -1.18

40	C=CCn1c(SCC(=O)N2CC(=O)Nc3ccccc32)nc2scc(-c3ccccc3)c2c1=O
  A: -11.3; B: 4.5; C: -12.7; D: 6.3; E: 1.43

41	Cn1c(-c2ccc3c(c2)OCO3)cnc1NCc1ccccc1
  A: 0.0; B: -50.9; C: 24.7; D: -0.6; E: -0.00624

42	CC(=O)NCCc1cc2cc(C)c(C)cc2[nH]c1=O
  A: -21.1; B: 6.7; C: -23.6; D: 5.8; E: ·

43	O=C(O)/C=C1\NC(=O)c2ccccc21
  A: 0.0; B: 5.2; C: 11.5; D: ·; E: -1.06

44	Cc1ccc(Cc2c(C)nc3nc(SCC(=O)NCc4ccco4)nn3c2C)cc1
  A: -46.2; B: 1.3; C: 17.0; D: ·; E: -0.0416

45	CC(/C=N/NC(=O)Cc1cccs1)=C\c1ccco1
  A: 0.6; B: 1.6; C: -15.4; D: ·; E: 0.633

46	O=C(CC1c2ccccc2Oc2ccccc21)N1CCN(c2ccccn2)CC1
  A: -28.7; B: 9.4; C: -4.0; D: 1.6; E: 0.138

47	C/C(CC1CC2=C(CC1(C)C)C(C)(C)CCC2)=N\NC(N)=S (stereo not given)
  A: -24.1; B: 10.6; C: ·; D: 9.6; E: -0.000309

48	CCOc1ccc(/C=N/NC(=O)COc2ccccc2-c2ccccc2)cc1
  A: 18.1; B: 16.8; C: -12.4; D: ·; E: -1.62

49	COC(=O)c1cc(Cl)c(NC(=O)c2cc3ccccc3o2)cc1OC
  A: -7.8; B: -8.6; C: 16.7; D: ·; E: -1.75

50	COc1ccc(C2(C(=O)N3CCOCC3)CCCC2)cc1
  A: -9.4; B: 12.9; C: -3.5; D: 3.6; E: -0.278

51	Cc1sc2c(c1C)CN(C(C)(C)C)CN2C(=O)c1ccccc1
  A: -12.0; B: 9.2; C: -6.3; D: -4.1; E: -1.14

52	CCN1C(=O)CC(NNC(=O)c2ccc(Cl)cc2)C1=O (stereo not given)
  A: -6.8; B: 0.4; C: 4.2; D: 6.2; E: -1.47

53	COc1ccc2[nH]c3nc(SCC(=O)NNC(=O)c4ccc(OC)c(OC)c4)nnc3c2c1
  A: 13.5; B: 5.4; C: -9.6; D: ·; E: 0.222

54	O=C(NCCCn1ccnc1)c1ccc(S(=O)(=O)N2CCCCCC2)cc1
  A: 4.5; B: 8.2; C: -1.6; D: -7.9; E: 3.08*

55	Cc1sc2c(c1C)c(=O)n(-c1ccccc1)c1nnc(C)n21
  A: -11.7; B: 3.5; C: -8.2; D: ·; E: 0.871

56	COc1ccc(C2=NOC(C(=O)NC(C)(C)C)C2)cc1 (stereo not given)
  A: 1.8; B: -14.4; C: 24.7; D: 2.6; E: 0.0147

57	COc1ccc2nc(Sc3c([N+](=O)[O-])nc(C)n3Cc3ccccc3)[nH]c2c1
  A: -5.9; B: 7.7; C: -29.6; D: ·; E: 0.976

58	O=C(/C=C1\NCC2c3ccccc3CCN2C1=O)c1ccccc1 (stereo not given)
  A: -15.2; B: 8.7; C: -16.1; D: ·; E: -0.146

59	CC(=O)Nc1ccc(-c2ccccc2)s1
  A: -20.5; B: -17.0; C: -6.7; D: 0.9; E: 0.0287

60	O=[N+]([O-])c1ccc(-c2nc(-c3cccs3)c(-c3cccs3)[nH]2)cc1
  A: 7.0; B: -0.3; C: 9.2; D: ·; E: -0.416

61	CCOC(=O)C1=C(C)NC(SCC(N)=O)=C(C#N)C1c1ccccc1 (stereo not given)
  A: -28.8; B: 14.7; C: -29.0; D: ·; E: 0.478

62	CC(=O)C(N=Nc1ccccc1)(Sc1nnc(-c2ccccc2)n1-c1ccccc1)C(=O)Nc1ccccc1 (stereo not given)
  A: 4.5; B: -12.0; C: 38.2; D: ·; E: 0.0746

63	Cc1nc(NCC2CCCO2)[nH]c(=O)c1CCC(C)C (stereo not given)
  A: ·; B: ·; C: ·; D: 1.6; E: 0.926

64	COC(=O)c1ccc(COc2ccc(/C=C(\C#N)c3nc4ccccc4[nH]3)cc2OC)o1
  A: -33.0; B: 2.6; C: -0.3; D: ·; E: 1.39

65	O=C(CN1CCN(S(=O)(=O)c2ccc(F)cc2)CC1)Nc1cc(C(F)(F)F)ccc1Cl
  A: -23.6; B: -3.6; C: -3.4; D: -0.2; E: -0.508

66	Cn1c(CN2CCOCC2)nnc1SCC(N)=O
  A: 5.0; B: -6.7; C: 6.8; D: -0.6; E: -0.00306

67	O=C(NCC1CCCO1)c1cccc(F)c1 (stereo not given)
  A: 0.0; B: 17.9; C: -17.1; D: 6.4; E: -0.209

# Screening data as filed in PubChem BioAssay.
